Yeast UUG start – modulators of start codon recognition fidelity in yeast; activity score, % at 18.7 µM; S. cerevisiae UUG-firefly luciferase reporter, luminescence/redox ratio; 350,000 compounds, 0.13% hits; AID 602363;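 active = replicate mean at a twofold rise or more, about +100% in these data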;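 also: firefly luciferase made from a UUG start codon reports start codon fidelity; reporter light over untreated wells divided by growth signal over untreated wells; some hits fall short of that in this replicate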
HIV Env fusion – inhibitors of HIV Env-mediated cell fusion; HeLa-JRFL Env/CEM21 cell fusion, luciferase; inhibition, % at 12.3 µM; 360,000 compounds, 1.1% hits; AID 651610;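 active = mean replicate inhibition score of at least 50 and every replicate individually at or above 50; inconclusive = only one of the two criteria met; inactive = mean below 50 and not all replicates reaching 50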;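 also: 0% = plate neutral controls and 100% = maraviroc near 300 nM; one replicate is shown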
CSC inhib – blocks cancer stem cells; inhibition, % at 7.5 µM; 300,000 compounds, 1.1% hits; cancer stem cell-like cells viability, luminescence; AID 2717;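 active = mean at 75% or more and at least half the replicates too; inconclusive = mean and replicates disagree; tested in HMLE shEcad cells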;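 also: 0% = median of negative and 100% = median of positive control wells; the first replicate is given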
PABP FP inh – PABP-poly(A) binding inhibition. PABP-poly(A) RNA binding, fluorescence polarization. inhibition, % at 35 µM. AID 2014. 290,000 compounds, 1% hits;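 active = 50% or more with normal probe brightness, or confirmed in later tests; inconclusive = above 50% with abnormal brightness, or retests that disagree; inactive = below 50% or failed in later tests; about a fifth of its hits are not listed in these tables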;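 also: calls also rest on retests at 20 µM and on dose response follow-up; controls were probe without protein and protein plus probe with vehicle; some compounds called inactive have numbers as strong as hits; many hits fall short of the cut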
Target sequence (P11940 whole entry, looked up): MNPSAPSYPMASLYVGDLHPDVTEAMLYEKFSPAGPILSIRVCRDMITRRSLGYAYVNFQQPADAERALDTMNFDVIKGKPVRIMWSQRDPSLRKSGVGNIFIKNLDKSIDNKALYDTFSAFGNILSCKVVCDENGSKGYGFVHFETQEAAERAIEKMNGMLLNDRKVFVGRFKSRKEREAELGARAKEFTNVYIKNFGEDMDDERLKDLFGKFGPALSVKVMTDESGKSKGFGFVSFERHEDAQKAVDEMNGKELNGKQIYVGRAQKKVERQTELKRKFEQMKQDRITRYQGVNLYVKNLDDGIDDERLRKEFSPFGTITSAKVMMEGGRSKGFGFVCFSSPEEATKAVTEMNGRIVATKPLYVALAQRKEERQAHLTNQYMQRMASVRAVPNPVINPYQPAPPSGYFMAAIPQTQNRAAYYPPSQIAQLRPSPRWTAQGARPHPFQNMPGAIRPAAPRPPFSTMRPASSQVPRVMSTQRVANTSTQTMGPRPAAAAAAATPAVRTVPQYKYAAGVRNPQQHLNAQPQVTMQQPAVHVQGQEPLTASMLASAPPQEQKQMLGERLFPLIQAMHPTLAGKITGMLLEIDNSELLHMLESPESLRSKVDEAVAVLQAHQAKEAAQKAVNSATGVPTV
eIF4H inh – inhibitors of RNA binding by human eIF4H. Q15056. eIF4H fluorescence polarization binding assay. 290,000 compounds, 0.94% hits. inhibition, % at 35 µM;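 active = 50% or more with normal probe brightness, or confirmed in later tests; inconclusive = above 50% with abnormal brightness, or retests that disagree; inactive = below 50% or failed in later tests; about a fifth of its hits are not listed in these tables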;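 also: calls also rest on retests at 20 µM and on dose response follow-up; 0% = protein and probe with vehicle and 100% = probe without protein; strong numbers were not always called active; many hits fall short of the cut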
MT1-MMP act inh – inhibitors of human MT1-MMP activation | GFP/RFP ratio change, % at 20 µM | HT1080 RFP-PRO-GFP cells, GFP/RFP ratio fluorescence, overnight; percent of plate control window, DMSO zero | 360,000 compounds, 0.061% hits;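 active = GFP/RFP ratio change of at least 30% with cell ATP level not reduced by more than half and red fluorescence within 50% of control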; also: strong numbers were not always called active
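Assay system: HT1080 cells carrying an RFP-PRO-GFP reporter | Dosing: Single dose of 20 µM compound, 1% DMSO final | Incubation: Cells overnight before dosing, compound overnight, 37 °C, 5% CO2 | Evaluation: GFP/RFP fluorescence ratio | Control set: DMSO and RFP-L50D-GFP cell wells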
Rce1 inhib – yeast Ras-converting enzyme inhibition; yeast membranes, quenched prenylated peptide cleavage fluorescence; calls only; 290,000 compounds, 0.27% hits; AID 2563;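 active = fall in fluorescence gain of 50% or more versus controls, with final raw signal at or below 3038400; inconclusive = same 50% fall but final raw signal above 3038400; inactive = fall in fluorescence gain under 50%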;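 also: plate controls were neutral control wells for no effect and wells lacking membranes for full effect; tested at 10 µM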
Target sequence (Q03530 whole entry, looked up): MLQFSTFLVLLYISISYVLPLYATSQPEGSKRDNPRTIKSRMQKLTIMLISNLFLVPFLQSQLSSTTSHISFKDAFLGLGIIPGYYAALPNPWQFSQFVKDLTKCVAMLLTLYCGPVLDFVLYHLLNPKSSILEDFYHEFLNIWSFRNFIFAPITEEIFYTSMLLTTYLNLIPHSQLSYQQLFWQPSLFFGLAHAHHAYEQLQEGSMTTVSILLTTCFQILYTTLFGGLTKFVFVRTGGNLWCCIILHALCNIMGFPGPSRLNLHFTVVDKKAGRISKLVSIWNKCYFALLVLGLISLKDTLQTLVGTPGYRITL
MT1-MMP act inh RFP – second read-out of MT1-MMP act inh, no call of its own (marks repeat the call); RFP signal change, %; measured here: RFP expression control read;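 0 = vehicle wells; hits needed this value within 50% of zero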
An asterisk follows results filed as active; i = inactive; ? = inconclusive; . = no result given.

Below each compound – Yeast UUG start | HIV Env fusion | CSC inhib | PABP FP inh | eIF4H inh | MT1-MMP act inh | MT1-MMP act inh RFP | Rce1 inhib
C[C@H]1CN([C@@H](C)CO)C(=O)c2cccc(NC(=O)C3CC3)c2O[C@H]1CN(C)S(=O)(=O)c1cccs1
 : 2 | 1 | . | . | . | 1 | 2 | .
O=C(O)C(c1ccccc1)C1(O)CCC1 (centres undefined)
 : -8 | 32 | . | . | . | -5 | 4 | .
Cc1ccc2nc(N3C(=O)C(O)=C(C(=O)c4ccco4)C3c3cccc(O)c3)sc2c1 (centres undefined)
 : -17 | -24 | . | -7 | 9 | -2 | 3 | i
O=S(=O)(Nc1ccc2c(c1)nc1n2CCN(Cc2ccccc2)C1)c1ccc(F)cc1
 : -15 | -22 | -3 | 12 | 0 | 0 | -4 | i
C[C@@H]1CN([C@@H](C)CO)S(=O)(=O)c2ccc(Br)cc2O[C@H]1CN(C)C(=O)Nc1ccc(C(F)(F)F)cc1
 : 2 | -3 | . | . | . | 3 | -1 | .
CC(C)CC(=O)NC(NCC1CCCO1)C(Cl)(Cl)Cl (centres undefined)
 : -9 | . | 2 | -4 | -17 | 0 | 0 | i
NC(=O)c1ccc(C2SCC(=O)N2Cc2ccccc2)cc1 (centres undefined)
 : -2 | . | -10 | 5 | 1 | 1 | -2 | i
Cc1cc2c(cc1C)CSC(c1ccccc1OC(=O)C(C)C)SC2
 : -17 | . | 27 | -7 | -3 | -2 | 9 | i
CC1CCc2c(sc(NC(=O)CSc3ncnc4c3cnn4-c3ccccc3Cl)c2C#N)C1 (centres undefined)
 : -6 | -114 | . | -7 | -4 | -8 | -10 | i
CCC(C)(C)NC(=O)C(c1cccn1C)N(Cc1ccc(OC)cc1)C(=O)Cn1nnc2ccccc21 (centres undefined)
 : -12 | . | 13 | 10 | -3 | -10 | -10 | i
O=C(NCc1ccccc1CN1CCOCC1)c1ccc(-n2cccn2)cc1
 : -12 | 2 | -7 | . | . | 2 | -1 | .
CCN(CC)c1ccc(NC(=O)c2ccccc2Br)cc1S(=O)(=O)Nc1ccccc1OC
 : -6 | 12 | 3 | 4 | 3 | -4 | -10 | i
COCCN1C(=O)C(CC(=O)Nc2ccccc2)SC1=Nc1ccc(OC)cc1 (centres undefined)
 : -9 | -49 | -7 | -9 | -4 | 3 | -1 | i
C/C(CC(=O)Nc1ccc(Cl)cn1)=N\NC(=O)Cc1cccs1
 : . | -7 | -3 | 12 | -3 | 6 | 5 | i
COc1ccc(C(=O)Nc2nc(-c3cccs3)cs2)cc1
 : -6 | . | 13 | -5 | 0 | -8 | -23 | i
CC1CCCCC1NC(=O)CSc1ncnc2sccc12 (centres undefined)
 : -26 | 20 | . | . | . | 3 | -4 | .
Cc1cc2oc(=O)sc2cc1NS(=O)(=O)c1cccc2cccnc12
 : -1 | -7 | 4 | -10 | -10 | 2 | -2 | i
COc1ccc(CC2(CO)CCN(CC3=CC[C@H]4C[C@@H]3C4(C)C)CC2)cc1
 : . | -4 | . | -2 | -4 | 2 | 2 | i
CCCCN(CC(=O)NCc1ccc(Cl)cc1)S(=O)(=O)c1ccc2c(c1)OCCO2
 : -20 | 10 | 0 | 5 | -15 | -2 | 0 | i
c1ccc2[nH]c(CCCCc3nc4ccccc4[nH]3)nc2c1
 : -10 | 15 | -6 | -7 | -3 | 2 | 3 | i
O=C(N/N=C/C1CCCCC1)c1cc(Cl)ccc1O
 : -26 | . | -1 | -3 | 10 | 1 | 1 | i
C/C(=N\Nc1ccc(C(F)(F)F)cn1)c1ccc(S(=O)(=O)NCc2ccco2)cc1
 : . | 27 | 12 | -5 | -2 | -1 | 0 | i
CCC(=O)NC(NC(=S)Nc1ccccc1Br)C(Cl)(Cl)Cl (centres undefined)
 : -8 | -5 | -1 | -1 | -8 | -3 | 2 | i
COC(=O)c1[nH]c2ccc(Cl)cc2c1NC(=O)CN1CCC(C(N)=O)CC1
 : . | . | -2 | -6 | 4 | . | . | i
COCCn1c(-c2ccc(OC)cc2)c(-c2ccc(OC)cc2)oc1=O
 : -9 | 5 | -21 | -10 | -6 | -5 | -5 | i
O=[N+]([O-])c1ccc(S(=O)(=O)NCC(c2ccc3c(c2)OCO3)N2CCOCC2)cc1 (centres undefined)
 : -2 | 0 | . | . | . | 1 | 1 | .
O=C(C[n+]1ccn(-c2ccccc2)c1)c1ccc([N+](=O)[O-])cc1
 : -6 | 0 | -25 | -22 | -11 | -2 | -9 | i
O=[N+]([O-])c1ccc(CSc2nnc(Cc3ccccc3)o2)cc1
 : . | 3 | 1 | 11 | 1 | -1 | 0 | i
Cc1ccc(NC(=O)CSc2nnc(CNC(=O)c3ccco3)o2)cc1
 : . | -8 | -7 | -9 | -7 | 4 | 0 | .
O=[N+]([O-])c1ccc2nc[nH]c2c1
 : -7 | 5 | . | . | . | -8 | -3 | .
Cc1ccc(C2CC(c3ccccc3)=NN2c2ccccc2)o1 (centres undefined)
 : . | 6 | -1 | -5 | 2 | -1 | -1 | i
CC1CC(C)CN(S(=O)(=O)c2ccc(NC(=S)NC(=O)c3ccccc3)cc2)C1 (centres undefined)
 : -24 | -21 | 17 | 5 | -2 | 4 | 3 | i
O=C(c1ccccc1)c1coc2ccc(O)c(CN3CCOCC3)c12
 : -1 | 23 | -1 | 6 | 0 | 0 | 3 | i
COCCNC(=O)/C(C#N)=C/c1c(N2CCCCCC2)nc2c(C)cccn2c1=O
 : -23 | 25 | -6 | -4 | -3 | -9 | -5 | i
COc1ccc(CNC(=O)C2CCN(S(=O)(=O)c3c(C)n[nH]c3C)CC2)cc1
 : -24 | . | 0 | 2 | 2 | 0 | 7 | i
CCN1CCN(CC(=O)c2ccc(C)cc2)CC1
 : -18 | -10 | -10 | 7 | 6 | -3 | -2 | i
O=c1[nH]c2cc(Cl)cc([N+](=O)[O-])c2c2ccc(Cl)cc12
 : 3 | -21 | . | . | . | -3 | -3 | .
COc1cccc2cc(C(=O)N3CCC(C)CC3)c(=O)oc12
 : 0 | -5 | -8 | -2 | 5 | 4 | 3 | i
COC(=O)c1ccccc1N(C)C(=O)C12CCC(C)(C(=O)O1)C2(C)C (centres undefined)
 : 2 | . | -6 | 4 | 0 | -2 | 1 | i
COC(=O)c1ccsc1NC(=O)CN1CCN(c2ccc(F)cc2)CC1
 : -9 | . | -10 | 1 | -2 | -8 | -11 | i
COc1ccc(CC(=O)OCC(=O)NCc2ccc(C)cc2)cc1OC
 : . | 11 | -13 | . | . | 1 | 2 | .
CCCc1cc(=O)oc2cc(OCC(=O)NCc3cccs3)ccc12
 : -21 | -6 | -10 | 4 | 1 | . | . | i
CC1(c2ccc(Cl)cc2)NC(=O)N(CC(=O)Nc2ccc(F)cc2)C1=O (centres undefined)
 : -15 | 1 | -6 | 1 | -12 | 2 | 1 | i
COc1ccc(Br)cc1C(=O)N/N=C/c1cccnc1
 : -14 | -1 | 2 | 4 | -7 | 5 | 4 | i
O=C(Nc1c(C(=O)N2CCOCC2)cnn1-c1ccccc1Cl)c1ccco1
 : -14 | -57 | -3 | -6 | -5 | 1 | 3 | i
COC(=O)c1ccc(CNC(=O)c2ccc(S(=O)(=O)N(C)c3ccccc3OC)cc2)cc1
 : 3 | . | -16 | . | . | -1 | -13 | .
CC1CC(C)CN(CCCNS(=O)(=O)c2ccc3c(c2)CCN3C(=O)C2CC2)C1 (centres undefined)
 : 1 | 6 | 56 | 6 | -10 | 5 | 3 | i
COc1ccccc1CNc1nc2cc(-c3ccccc3C)sc2c(=O)n1C
 : -12 | 46 | . | . | . | 4 | -3 | .
c1ccc2cc(CNCc3cccc4ccccc34)ccc2c1
 : . | 1 | 25 | -1 | -3 | 0 | 1 | i
Cc1ccc2c(c1)c1c3n2CCN(CC(O)CNC(C)C)C3CCC1 (centres undefined)
 : -27 | -13 | 9 | 37 | 1 | -2 | 2 | .

(cont.)
Below each compound – Yeast UUG start | HIV Env fusion | CSC inhib | PABP FP inh | eIF4H inh | MT1-MMP act inh | MT1-MMP act inh RFP | Rce1 inhib
O=[N+]([O-])c1ccc2c([N+](=O)[O-])ccc3c2c1CC3
 : -15 | -46 | . | . | . | -2 | -3 | .
CC1CCN(C(=S)NC2CCCCC2)CC1
 : -4 | -72 | -7 | -1 | -5 | 2 | 7 | i
C/C(=N\NC(=O)c1ccco1)c1cc2ccccc2o1
 : -4 | -13 | -8 | 13 | -7 | 7 | 8 | i
N#C/C(=C\c1cccnc1)C(=O)Nc1cccc(Cl)c1
 : . | -3 | -3 | 15 | 6 | -1 | 5 | i
COc1ccc(S(=O)(=O)N2CCOCC2)cc1NC(=O)c1ccc(S(=O)(=O)N(C)c2ccccc2OC)cc1
 : -11 | 4 | . | . | . | -3 | -6 | .
O=[N+]([O-])c1ccc(C=NNc2ccccc2)cc1
 : -10 | -7 | . | . | . | -23 | 0 | .
S=c1[nH]c(-c2ccccc2)cn1/N=C/c1cccs1
 : 1 | -16 | -6 | 3 | -2 | -3 | -11 | i
CCn1c(CNc2ccc(Cl)cc2)nnc1SCc1ccc(Cl)cc1
 : -21 | 43 | 0 | -4 | -2 | 3 | -5 | i
Cn1ccc2c([N+](=O)[O-])cccc2c1=O
 : . | -5 | -2 | -4 | 10 | -3 | 2 | .
C=CCN(CC=C)c1nc2ccccc2nc1C(C#N)C(=O)OCCOC (centres undefined)
 : -9 | . | -9 | ? | ? | -7 | 17 | i
Cc1cc(C(=O)OCC(=O)NC(C)c2ccc(F)cc2)c(C)o1 (centres undefined)
 : -8 | . | 12 | . | . | 1 | 2 | .
CCCn1c(SCc2nc3ccccc3s2)n[nH]c1=O
 : . | -74 | -5 | -7 | -2 | 2 | 1 | i
COC(C[C@H]1O[C@@H]1[C@@H](O)COCc1ccccc1)OC
 : -6 | -1 | . | -7 | -11 | 0 | 3 | i
Clc1ccc(CSc2nnc([C@@H]3CCCN3)o2)cc1Cl
 : -15 | . | -4 | 19 | 5 | -1 | 0 | i
Cc1nc(C(F)(F)F)ccc1C(=O)N1CCC1(C)C(=O)NS(=O)(=O)c1ccc(C#N)cc1 (centres undefined)
 : -4 | -15 | . | . | . | -2 | 2 | .
COc1cccc(NC(=O)Cn2cnc3sc(C)c(S(=O)(=O)N4CCCCC4)c3c2=O)c1
 : -20 | . | -1 | 1 | 12 | 2 | 2 | i
CCOC(=O)c1c(C)[nH]c(C(=O)COC(=O)COc2ccccc2C=O)c1C
 : . | . | 2 | -13 | -11 | -5 | 4 | i
COC(=O)C1=C(N)Oc2cc(C)n(CC3CCCO3)c(=O)c2C1c1ccc(Cl)cc1 (centres undefined)
 : . | . | -10 | -5 | 3 | 2 | -3 | i
CS(=O)(=O)c1ccc2nc(NC(=O)Nc3ccc(Cl)cc3)sc2c1
 : . | . | . | 8 | -35 | -3 | 1 | i
COc1ccccc1/C=C/C(=O)OCC(=O)NCc1ccc2c(c1)OCO2
 : -6 | . | -10 | . | . | 0 | -1 | .
COc1ccc(-c2cc(C(F)F)n3ncc(C(=O)Nc4c(C)n(C)n(-c5ccccc5)c4=O)c3n2)cc1
 : -39 | 13 | 1 | 7 | -6 | -3 | -7 | i
Cc1ccccc1NC(=O)NC1CCCCC1C (centres undefined)
 : . | -1 | . | -2 | 3 | 0 | -1 | i
Cc1cc(C)nc(NS(=O)(=O)c2ccc(NC(=S)NC(=O)C3CCCC3)cc2)n1
 : -12 | -29 | -2 | 3 | -4 | 6 | 6 | i
COC(=O)C=C1CCC2C3CCC4=CC(=O)C(Br)CC4(C)C3C(=O)CC12C (centres undefined)
 : -12 | -25 | . | . | . | -4 | -3 | .
Cc1ccc(S(=O)(=O)CC(=O)Nc2nc3ccccc3s2)cc1
 : . | 9 | 5 | 6 | 6 | 0 | 1 | i
